PABP polyA inh: PABP poly(A) RNA binding inhibitors, primary screen, biochemical, fluorescence polarization, uHTS | Polyadenylate-binding protein 1 (Homo sapiens), P11940 | inhibition, % at 35 µM | hit rate 1% among 290,000;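 active = 50% or more with normal probe brightness, or confirmed in later tests; inconclusive = above 50% with abnormal brightness, or retests that disagree; inactive = below 50% or failed in later tests; about a fifth of its hits are not listed in these tables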;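 note: calls also rest on retests at 20 µM and on dose response follow-up; controls were probe without protein and protein plus probe with vehicle; some compounds called inactive have numbers as strong as hits; many hits fall short of the cut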
Target sequence (P11940 whole entry, looked up): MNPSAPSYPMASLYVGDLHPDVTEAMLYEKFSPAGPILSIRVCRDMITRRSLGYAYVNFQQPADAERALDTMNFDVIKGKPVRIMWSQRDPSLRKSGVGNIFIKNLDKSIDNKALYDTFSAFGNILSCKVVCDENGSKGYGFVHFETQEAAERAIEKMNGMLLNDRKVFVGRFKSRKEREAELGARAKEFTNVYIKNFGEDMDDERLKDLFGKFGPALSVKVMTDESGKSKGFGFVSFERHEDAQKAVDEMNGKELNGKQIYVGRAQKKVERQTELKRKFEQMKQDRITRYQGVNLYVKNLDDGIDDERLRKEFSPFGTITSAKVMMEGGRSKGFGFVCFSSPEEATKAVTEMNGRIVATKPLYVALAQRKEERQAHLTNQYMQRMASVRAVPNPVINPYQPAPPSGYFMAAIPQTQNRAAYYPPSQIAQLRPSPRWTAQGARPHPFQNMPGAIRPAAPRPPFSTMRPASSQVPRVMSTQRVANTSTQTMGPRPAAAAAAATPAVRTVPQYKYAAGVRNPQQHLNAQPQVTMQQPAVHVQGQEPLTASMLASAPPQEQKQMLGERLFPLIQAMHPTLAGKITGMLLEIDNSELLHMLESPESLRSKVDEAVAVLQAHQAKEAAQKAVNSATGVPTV
Rce1 inhib: yeast Rce1p protease inhibitors, primary screen, biochemical, fluorescence, cell-free homogeneous; calls only; CAAX prenyl protease 2 (Saccharomyces cerevisiae (strain ATCC 204508 / S288c)), Q03530; AID 2563, 2010; hit rate 0.27% among 290,000; yeast membranes, quenched prenylated peptide cleavage fluorescence;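 active = fall in fluorescence gain of 50% or more versus controls, with final raw signal at or below 3038400; inconclusive = same 50% fall but final raw signal above 3038400; inactive = fall in fluorescence gain under 50%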;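 note: plate controls were neutral control wells for no effect and wells lacking membranes for full effect; tested at 10 µM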
Target sequence (Q03530 whole entry, looked up): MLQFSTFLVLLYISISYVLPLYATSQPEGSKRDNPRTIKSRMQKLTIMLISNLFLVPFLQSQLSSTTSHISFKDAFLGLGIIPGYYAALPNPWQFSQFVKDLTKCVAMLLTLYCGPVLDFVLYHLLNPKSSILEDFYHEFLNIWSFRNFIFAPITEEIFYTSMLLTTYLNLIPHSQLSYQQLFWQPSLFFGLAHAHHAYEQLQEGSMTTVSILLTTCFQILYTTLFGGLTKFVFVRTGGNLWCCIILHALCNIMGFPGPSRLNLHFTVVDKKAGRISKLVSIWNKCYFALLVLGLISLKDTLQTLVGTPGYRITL
Env fusion inh: inhibitors of HIV-1 Env-driven cell-cell fusion, primary screen, HeLa-JRFL effector, CEM21 target cells, luciferase. AID 651610, 2012. inhibition, % at 12.3 µM. hit rate 1.1% among 360,000;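 active = mean replicate inhibition score of at least 50 and every replicate individually at or above 50; inconclusive = only one of the two criteria met; inactive = mean below 50 and not all replicates reaching 50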;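 note: 0% = plate neutral controls and 100% = maraviroc near 300 nM; one replicate is shown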
MT1-MMP act inh: blockers of MT1-MMP proenzyme processing, primary screen, HT1080 RFP-PRO-GFP cells, GFP/RFP fluorescence | Matrix metalloproteinase-14 (Homo sapiens), P50281 | GFP/RFP ratio fluorescence, overnight; percent of plate control window, DMSO zero | GFP/RFP ratio change, % at 20 µM | hit rate 0.061% among 360,000;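 active = GFP/RFP ratio change of at least 30% with cell ATP level not reduced by more than half and red fluorescence within 50% of control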; note: strong numbers were not always called active
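Assay system: HT1080 cells carrying an RFP-PRO-GFP reporter | Dosing: Single dose of 20 µM compound, 1% DMSO final | Incubation: Cells overnight before dosing, compound overnight, 37 °C, 5% CO2 | Evaluation: GFP/RFP fluorescence ratio | Control set: DMSO and RFP-L50D-GFP cell wells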
CSC inhib: cancer stem cell viability inhibitors, primary screen, luminescence; cancer stem cell-like cells viability; inhibition, % at 7.5 µM; hit rate 1.1% among 300,000;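 active = mean at 75% or more and at least half the replicates too; inconclusive = mean and replicates disagree; tested in HMLE shEcad cells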;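 note: 0% = median of negative and 100% = median of positive control wells; the first replicate is given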
eIF4H inh: human eIF4H binding inhibitors, primary screen, translation initiation inhibitor project, biochemical, uHTS, fluorescence polarization; Eukaryotic translation initiation factor 4H (Homo sapiens), Q15056; eIF4H fluorescence polarization binding assay; inhibition, % at 35 µM; hit rate 0.94% among 290,000; AID 2012, 2009;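 active = 50% or more with normal probe brightness, or confirmed in later tests; inconclusive = above 50% with abnormal brightness, or retests that disagree; inactive = below 50% or failed in later tests; about a fifth of its hits are not listed in these tables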;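 note: calls also rest on retests at 20 µM and on dose response follow-up; 0% = protein and probe with vehicle and 100% = probe without protein; strong numbers were not always called active; many hits fall short of the cut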
UUG fidelity: modulators of yeast start codon fidelity, primary screen, whole organism, S. cerevisiae, single point, plate reader | AID 602363, 2012 | S. cerevisiae UUG-firefly luciferase reporter, luminescence/redox ratio | hit rate 0.13% among 350,000 | activity score, % at 18.7 µM;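 active = replicate mean at a twofold rise or more, about +100% in these data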;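 note: firefly luciferase made from a UUG start codon reports start codon fidelity; reporter light over untreated wells divided by growth signal over untreated wells; some hits fall short of that in this replicate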
eIF4H inh retest: also measured in eIF4H inh; calls as there; inhibition, %; compound at 20 µM; confirmation average;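 mean of two retest wells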
PABP polyA inh retest: further read-out of PABP polyA inh, marked with its call; inhibition, %; compound at 20 µM; confirmation repeats;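 mean of two retest wells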
MT1-MMP act inh RFP: also measured in MT1-MMP act inh; calls as there; RFP signal change, %; measured here: RFP expression control read;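 0 = vehicle wells; hits needed this value within 50% of zero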
* = called active by the depositor; & = joins results of further samples. Some of the compounds tested; the hit share may differ from the screen's.

`CC(C)C(=O)NC(=S)Nc1ccccc1N1CCN(C(=O)c2ccc(Cl)cc2)CC1` gave PABP polyA inh -4, Rce1 inhib inactive, Env fusion inh 18, MT1-MMP act inh -12, CSC inhib 17, eIF4H inh -9 and MT1-MMP act inh RFP -13.
For CCOc1ccc(S(=O)(=O)N2CCC(C(=O)N3CCN(C)CC3)CC2)cc1Cl the results were PABP polyA inh 0, Rce1 inhib inactive, Env fusion inh 4, MT1-MMP act inh -2, CSC inhib -2, eIF4H inh -9, UUG fidelity -25 and MT1-MMP act inh RFP 0.
`COc1ccc(-c2noc(CCC(=O)N3CCN(c4cccc(Cl)c4)CC3)n2)cc1` gave Env fusion inh 24, MT1-MMP act inh 4, UUG fidelity -31 and MT1-MMP act inh RFP 1.
For Cc1ccc(C2(C)NC(=O)N(CC(=O)N3CCc4ccccc43)C2=O)cc1 (stereo unspecified) the results were Env fusion inh -3, MT1-MMP act inh -2, CSC inhib -12 and MT1-MMP act inh RFP 0.
For O=C(c1nc(-c2ccccc2)n(-c2ccccc2)n1)N1CCCCCC1 the results were PABP polyA inh -3, Rce1 inhib inactive, Env fusion inh -31, MT1-MMP act inh -7, CSC inhib -13, eIF4H inh -10, UUG fidelity 6 and MT1-MMP act inh RFP -2.
`CCC(C)NC(=O)c1cn(CC)c2ccc(S(=O)(=O)N3CCCCC3)cc2c1=O` (stereo unspecified) gave PABP polyA inh -5, Rce1 inhib inactive, Env fusion inh -3, MT1-MMP act inh 1, CSC inhib 13, eIF4H inh -17, UUG fidelity 1 and MT1-MMP act inh RFP 6.
For COc1ccc(N2CCN(C(c3cccs3)c3nnnn3C3CCCC3)CC2)cc1 (stereo unspecified) the results were PABP polyA inh 9, Rce1 inhib inactive, MT1-MMP act inh -5, eIF4H inh 3, UUG fidelity -8 and MT1-MMP act inh RFP -4.
Screening CCc1nc(OCCN(C)C)c2oc3ccccc3c2n1 returned PABP polyA inh 24, Rce1 inhib inactive, Env fusion inh 4, MT1-MMP act inh -6, CSC inhib -19, eIF4H inh 0, UUG fidelity -13 and MT1-MMP act inh RFP -2.
Screening Cc1ccc(/C=C/C(=O)Nc2nc3ccccc3[nH]2)cc1 returned PABP polyA inh -24, Rce1 inhib inactive, Env fusion inh -139, MT1-MMP act inh 4, CSC inhib 1, eIF4H inh -6 and MT1-MMP act inh RFP 7.
`Cc1ccc(C(=O)NNC(=O)c2ccc(S(=O)(=O)N3CCCCC3)cc2)cc1` gave Env fusion inh 8, MT1-MMP act inh -1, CSC inhib -1, UUG fidelity -8 and MT1-MMP act inh RFP 1.
Screening O=C1COc2ccccc2N1Cc1c(F)cccc1Cl returned PABP polyA inh -4, Rce1 inhib inactive, Env fusion inh 13, MT1-MMP act inh 2, CSC inhib -6, eIF4H inh -14, UUG fidelity -9 and MT1-MMP act inh RFP 3.
Screening CCC(C)NC(=O)C1CCN(S(=O)(=O)c2cc([N+](=O)[O-])ccc2Cl)CC1 (stereo unspecified) returned PABP polyA inh -6, Rce1 inhib inactive, Env fusion inh 5, MT1-MMP act inh 0, CSC inhib 37, eIF4H inh -1 and MT1-MMP act inh RFP 0.
Screening CC(C)Cc1nnc(NS(C)(=O)=O)s1 returned PABP polyA inh 1, Rce1 inhib inactive, MT1-MMP act inh 5, CSC inhib -5, eIF4H inh 9, UUG fidelity -3 and MT1-MMP act inh RFP 5.
CSc1cccc(NC(=O)c2cc(S(=O)(=O)N3CCc4ccccc43)cn2C)c1 was read as PABP polyA inh 0, Rce1 inhib inactive, MT1-MMP act inh 4, CSC inhib 4, eIF4H inh -10, UUG fidelity -1 and MT1-MMP act inh RFP -10.
`O=S(=O)(NCC(c1ccco1)N1CCN(c2ccc(F)cc2)CC1)c1ccc(F)cc1` (stereo unspecified) gave PABP polyA inh -2, Rce1 inhib inactive, Env fusion inh 8, MT1-MMP act inh -1, CSC inhib -4, eIF4H inh 13, UUG fidelity 3 and MT1-MMP act inh RFP 2.
For Cc1ccc2c(CN3CCC(C)CC3)cc(=O)oc2c1 the results were PABP polyA inh -1, Rce1 inhib inactive, Env fusion inh -115, MT1-MMP act inh -3, CSC inhib -10, eIF4H inh -3, UUG fidelity -7 and MT1-MMP act inh RFP -4.
CCCCN(C(=O)C1CC(=O)N(c2ccc(CC)cc2)C1)c1c(N)n(CCC)c(=O)[nH]c1=O (stereo unspecified) was read as Env fusion inh -16, MT1-MMP act inh 1, UUG fidelity -5 and MT1-MMP act inh RFP -1.
`O=[N+]([O-])c1ccc2nn(Cc3ccccc3)cc2c1` gave PABP polyA inh 24, Rce1 inhib inactive, Env fusion inh 6, MT1-MMP act inh 1, CSC inhib 12, eIF4H inh -13, UUG fidelity 7 and MT1-MMP act inh RFP 1.
Screening COc1ccc(/C=C2/NC(=O)N(Cc3ccccc3F)C2=O)cc1OC returned PABP polyA inh 76*, Rce1 inhib inactive, Env fusion inh -12, MT1-MMP act inh 2, CSC inhib -5, eIF4H inh inconclusive, PABP polyA inh retest 99* and MT1-MMP act inh RFP -1.
Screening CCN1CCN(Cc2ccc(NC(=O)c3cc(NC(=O)c4cncc(-c5ccc(C#N)cc5)c4)cc(OC)c3)cc2C(F)(F)F)CC1 returned PABP polyA inh -1, Rce1 inhib inactive, Env fusion inh 4, MT1-MMP act inh -4&7, CSC inhib 31, eIF4H inh -17, UUG fidelity 9&-5 and MT1-MMP act inh RFP -11&2.
O=C(CSc1nnc(C2CC2)n1Cc1ccccc1)NCc1ccccc1 was read as PABP polyA inh 0, Rce1 inhib inactive, Env fusion inh -51, MT1-MMP act inh 4, CSC inhib -7, eIF4H inh 5, UUG fidelity -4 and MT1-MMP act inh RFP 5.
`Cn1c(SCC(=O)Nc2ccc3c(c2)OCCO3)nnc1C(F)(F)F` gave Env fusion inh 2, MT1-MMP act inh 2, UUG fidelity -17 and MT1-MMP act inh RFP 6.
Screening CC1CC(C)CN(CC(O)COCc2ccccc2F)C1 (stereo unspecified) returned PABP polyA inh -8, Rce1 inhib inactive, Env fusion inh 1, MT1-MMP act inh -2, CSC inhib -8, eIF4H inh 0, UUG fidelity -11 and MT1-MMP act inh RFP 1.
Screening O=C(O)c1cccc(NC(=S)N/N=C/c2ccccc2OCc2ccc(Br)cc2)c1 returned PABP polyA inh 5, Rce1 inhib inactive, Env fusion inh -19, MT1-MMP act inh 3, CSC inhib 17, eIF4H inh 42 and MT1-MMP act inh RFP -6.
COC(=O)CCC(=O)Nc1cc(OC)c(OC)cc1Cc1nccc2cc(OC)c(OC)cc12 was read as PABP polyA inh -19, Rce1 inhib inactive, Env fusion inh 8, MT1-MMP act inh 0, CSC inhib -4, eIF4H inh -8, UUG fidelity -13 and MT1-MMP act inh RFP 1.
Cc1ccc(NC(=O)CN2C(=O)S/C(=C/c3ccc(-c4cc(C(=O)O)ccc4C)o3)C2=O)cc1C was read as PABP polyA inh 54*, Rce1 inhib inactive, Env fusion inh -14, MT1-MMP act inh -2, eIF4H inh 38, UUG fidelity 13, eIF4H inh retest 10, PABP polyA inh retest 83* and MT1-MMP act inh RFP 7.
Screening CN(C)c1c([N+](=O)[O-])ncn1C returned PABP polyA inh 39, Rce1 inhib inactive, MT1-MMP act inh 2, CSC inhib -2, eIF4H inh 11, UUG fidelity -2 and MT1-MMP act inh RFP 2.
`CCOC(=O)c1cc2sccc2n1CC(=O)N1CCN(C(=O)c2ccco2)CC1` gave PABP polyA inh -1, Rce1 inhib inactive, MT1-MMP act inh -4, eIF4H inh 3, UUG fidelity -9 and MT1-MMP act inh RFP -1.
COc1ccc(-c2cc(=O)oc3cc(OC(C)C(=O)NC4CC4)ccc23)cc1 (stereo unspecified) was read as PABP polyA inh -4, Rce1 inhib inactive, MT1-MMP act inh 2, CSC inhib -3, eIF4H inh 1, UUG fidelity -16 and MT1-MMP act inh RFP -5.
C[C@H](NC(=O)c1ccco1)C(=O)NNC(=O)c1ccc(F)cc1 was read as MT1-MMP act inh -2, CSC inhib -26, UUG fidelity 5 and MT1-MMP act inh RFP 2.
Screening CCOc1cc(N2CCOCC2)c(OCC)cc1NC(=O)c1ccc(NC(C)=O)cc1 returned PABP polyA inh -12, Rce1 inhib inactive, Env fusion inh -9, MT1-MMP act inh 6, CSC inhib 2, eIF4H inh 0, UUG fidelity -5 and MT1-MMP act inh RFP 6.
`CSc1sc(C(=O)O)c2c1C(=O)CCC2` gave PABP polyA inh 15, Rce1 inhib inactive, MT1-MMP act inh 2, eIF4H inh -8, UUG fidelity 0 and MT1-MMP act inh RFP -3.
Screening CC(C)c1ccc(C(=O)NC2=NCCS2)cc1 returned PABP polyA inh 14, Rce1 inhib inactive, Env fusion inh -32, MT1-MMP act inh 3, CSC inhib 5, eIF4H inh -4 and MT1-MMP act inh RFP 6.
For CSCCC(NC(N)=O)C(=O)Nc1ccc(C)cc1 (stereo unspecified) the results were PABP polyA inh -6, Rce1 inhib inactive, Env fusion inh 1, MT1-MMP act inh 0, CSC inhib 2, eIF4H inh 0 and MT1-MMP act inh RFP 3.
Screening O=C(c1cc(-c2ccc(O)cc2)on1)N1CCOCC1 returned PABP polyA inh 3, Rce1 inhib inactive, Env fusion inh -37, MT1-MMP act inh -1, CSC inhib 1, eIF4H inh -7, UUG fidelity -59 and MT1-MMP act inh RFP 2.
For COc1ccc2c(C)cc(SCC(=O)N(C)C3CCS(=O)(=O)C3)nc2c1 (stereo unspecified) the results were PABP polyA inh -4, Rce1 inhib inactive, Env fusion inh 2, MT1-MMP act inh -12, CSC inhib -18, eIF4H inh 14 and MT1-MMP act inh RFP 1.
`COC(=O)C(NNc1ccc(F)cc1)(NC(=O)c1ccccc1)C(F)(F)F` (stereo unspecified) gave PABP polyA inh 0, Env fusion inh -4, MT1-MMP act inh 4, CSC inhib 6, eIF4H inh 6 and MT1-MMP act inh RFP -1.
For COc1ccccc1NC(=O)C(C)OC(=O)Cc1ccsc1 (stereo unspecified) the results were Env fusion inh 11, MT1-MMP act inh 1, UUG fidelity -23 and MT1-MMP act inh RFP 6.
Screening COc1ccc(S(=O)(=O)N2CCC(NC(=O)c3cccc(F)c3)CC2)cc1 returned PABP polyA inh -6, Rce1 inhib inactive, Env fusion inh -12, MT1-MMP act inh 1, CSC inhib -2, eIF4H inh -6, UUG fidelity 4 and MT1-MMP act inh RFP -3.
For O=C(O)C1CC(=O)N(CCc2c[nH]c3ccccc23)C1 (stereo unspecified) the results were PABP polyA inh 4, Rce1 inhib inactive, Env fusion inh 5, MT1-MMP act inh 5, eIF4H inh 2, UUG fidelity -18 and MT1-MMP act inh RFP 6.

Screening data from PubChem.
